PABP polyA inh: blocks human PABP binding to poly(A) RNA; fluorescence polarization; P11940; inhibition, % at 35 µM; 290,000 tested, 1% active;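 active means 50% or more with normal probe brightness, or confirmed in later tests; inconclusive means above 50% with abnormal brightness, or retests that disagree; inactive means below 50% or failed in later tests; about a fifth of its hits are not listed in these tables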;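 further: calls also rest on retests at 20 µM and on dose response follow-up; controls were probe without protein and protein plus probe with vehicle; some compounds called inactive have numbers as strong as hits; many hits fall short of the cut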
eIF4H inh: inhibitors of RNA binding by human eIF4H. inhibition, % at 35 µM. AID 2012. eIF4H fluorescence polarization binding assay. Q15056. 290,000 tested, 0.94% active;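 active means 50% or more with normal probe brightness, or confirmed in later tests; inconclusive means above 50% with abnormal brightness, or retests that disagree; inactive means below 50% or failed in later tests; about a fifth of its hits are not listed in these tables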;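 further: calls also rest on retests at 20 µM and on dose response follow-up; 0% = protein and probe with vehicle and 100% = probe without protein; strong numbers were not always called active; many hits fall short of the cut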
Yeast UUG start: modulators of start codon recognition fidelity in yeast; activity score, % at 18.7 µM; 350,000 tested, 0.13% active; S. cerevisiae UUG-firefly luciferase reporter, luminescence/redox ratio;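 active means replicate mean at a twofold rise or more, about +100% in these data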;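 further: firefly luciferase made from a UUG start codon reports start codon fidelity; reporter light over untreated wells divided by growth signal over untreated wells; some hits fall short of that in this replicate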
HIV Env fusion: inhibitors of HIV Env-mediated cell fusion; inhibition, % at 12.3 µM; HeLa-JRFL Env/CEM21 cell fusion, luciferase; 360,000 tested, 1.1% active;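 active means mean replicate inhibition score of at least 50 and every replicate individually at or above 50; inconclusive means only one of the two criteria met; inactive means mean below 50 and not all replicates reaching 50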;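 further: 0% = plate neutral controls and 100% = maraviroc near 300 nM; one replicate is shown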
MT1-MMP act inh: blocks activation of human MT1-MMP; P50281; GFP/RFP ratio change, % at 20 µM; 360,000 tested, 0.061% active; HT1080 RFP-PRO-GFP cells, GFP/RFP ratio fluorescence, overnight; percent of plate control window, DMSO zero;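 active means GFP/RFP ratio change of at least 30% with cell ATP level not reduced by more than half and red fluorescence within 50% of control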; further: strong numbers were not always called active
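Material – HT1080 RFP-PRO-GFP cells · Control set – DMSO wells and RFP-L50D-GFP cells · Incubation – overnight cell settling, then overnight compound exposure, 37 °C, 5% CO2 · Compound dosing – single-point 20 µM compound, 1% DMSO · Read-out – GFP/RFP fluorescence ratio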
Rce1 inhib: inhibitors of yeast Ras-converting enzyme | Q03530 | yeast membranes, quenched prenylated peptide cleavage fluorescence | calls only | 290,000 tested, 0.27% active | AID 2563;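 active means fall in fluorescence gain of 50% or more versus controls, with final raw signal at or below 3038400; inconclusive means same 50% fall but final raw signal above 3038400; inactive means fall in fluorescence gain under 50%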;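 further: plate controls were neutral control wells for no effect and wells lacking membranes for full effect; tested at 10 µM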
Target sequence (Q03530 whole entry, looked up): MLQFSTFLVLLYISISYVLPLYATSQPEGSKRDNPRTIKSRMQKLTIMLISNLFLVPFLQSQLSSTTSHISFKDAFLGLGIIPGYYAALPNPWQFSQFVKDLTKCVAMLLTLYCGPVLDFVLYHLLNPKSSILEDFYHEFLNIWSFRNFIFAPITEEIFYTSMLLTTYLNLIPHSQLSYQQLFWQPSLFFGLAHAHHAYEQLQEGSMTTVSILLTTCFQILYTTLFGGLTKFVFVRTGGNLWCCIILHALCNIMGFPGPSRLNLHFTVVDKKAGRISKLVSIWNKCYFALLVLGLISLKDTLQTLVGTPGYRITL
CSC inhib: cancer stem cell inhibition | 300,000 tested, 1.1% active | AID 2717 | inhibition, % at 7.5 µM | cancer stem cell-like cells viability, luminescence;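 active means mean at 75% or more and at least half the replicates too; inconclusive means mean and replicates disagree; tested in HMLE shEcad cells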;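 further: 0% = median of negative and 100% = median of positive control wells; the first replicate is given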
PABP polyA inh retest: second read-out of PABP polyA inh, no call of its own (marks repeat the call); inhibition, %; compound at 20 µM; confirmation repeats;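 mean of two retest wells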
MT1-MMP act inh RFP: further read-out of MT1-MMP act inh, marked with its call; RFP signal change, %; measured here: RFP expression control read;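 0 = vehicle wells; hits needed this value within 50% of zero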
* marks the source's active call; other numbers are inactive results; i = inactive; ? = inconclusive; / = no result given. Rows were taken by chance. Share with any hit: about 3%.

SMILES | PABP polyA inh | eIF4H inh | Yeast UUG start | HIV Env fusion | MT1-MMP act inh | MT1-MMP act inh RFP | Rce1 inhib | CSC inhib | others
O=C(NC1=NCCS1)c1ccccc1Cl | 6 | 7 | -22 | -7 | -2 | 1 | i | -18
Oc1cc(-c2cccnc2)cc2cccnc12 | / | / | -45 | -108 | 4 | -6 | / | 46
O=C(c1ccc(COc2ccc(Cl)cc2)o1)N1CCN(Cc2ccc3c(c2)OCO3)CC1 | -3 | 3 | -5 | / | -2 | -11 | i | 29
Cc1cc(C)n(-c2cccc3cccnc23)n1 | 10 | -3 | -10 | -39 | 0 | 4 | i | -9
O=C(Nc1ccc(Cl)cc1)c1ccc2ncsc2c1 | 10 | -4 | -25 | -38 | 1 | 0 | i | /
Cn1nc(C(C)(C)C)c([N+](=O)[O-])c1C(=O)Nc1cccc2ccccc12 | 8 | 5 | 7 | 17 | -2 | -5 | i | 3
COc1ccccc1CNS(=O)(=O)c1ccc(S(=O)(=O)NC2CC2)cc1 | 2 | -2 | -4 | 7 | 1 | 1 | i | /
Cc1cc(Cl)c2ccc(Cl)cc2n1 | 5 | -7 | / | 2 | 7 | 6 | i | -9
O=C(CCCCO)c1ccc(O)c(Cl)c1 | / | / | 0 | -12 | 1 | 7 | i | -2
CS(=O)(=O)N1CCN(C(=S)NCc2ccc(F)cc2)CC1 | -5 | 12 | / | -4 | 2 | 1 | i | -11
CN(CC(=O)Nc1ccccc1Br)C(=O)Cn1[nH]c(=O)c2ccccc2c1=O | / | / | -12 | 3 | -1 | 3 | / | 6
NC(=O)c1c(NC(=O)C(=O)N2CCOCC2)sc2c1CCC2 | 8 | -10 | -21 | -1 | 0 | 5 | i | -11
O=C(NCc1ccco1)c1ccccc1O | 2 | -6 | -4 | -15 | 0 | 0 | i | /
O=C1Nc2ccccc2C1(O)c1ccccc1 (stereo unspecified) | 0 | -1 | -22 | 1 | -3 | -1 | i | -3
O=C(NCc1ccco1)Nc1ccc(Br)cc1Cl | 3 | -3 | -24 | -90 | 0 | -5 | i | 17
O=S1(=O)C=CC(Nc2cccc(Cl)c2)C1 (stereo unspecified) | 6 | 2 | 16 | / | 14 | -1 | i | -6
CCn1c(=O)n(C)c2c(=O)n(C)c(=O)n(C)c21 | / | / | -8 | -12 | -2 | 3 | / | /
Cc1ccc(NC(=O)c2cnccn2)cc1C | 7 | 8 | -5 | -57 | -3 | 0 | i | 0
CC(c1cccs1)N(C(=O)Nc1ccccc1)C1CCCCC1 (stereo unspecified) | 5 | 4 | 6 | -12 | 1 | 0 | i | -7
Cc1noc(C)c1-c1ccc2ncnc(NC(C)c3ccco3)c2c1 (stereo unspecified) | / | / | 11 | 22 | 5 | 0 | / | 3
Cc1ccccc1C(=O)NN(C)c1nc2ccccc2nc1C(F)(F)F | 1 | 3 | -9 | / | -3 | -1 | i | /
Cc1ccccc1OCc1nc2ccc(S(=O)(=O)N3CCOCC3)cc2[nH]1 | 1 | 0 | -13 | -82 | 3 | 0 | i | -4
Nc1ncnc2c1ncn2[C@H]1C[C@H](O)[C@@H](COP(=O)(O)O)O1 | 7 | 2 | -14 | 11 | 6 | 5 | i | 5
COC(=O)c1sccc1NC(=O)Nc1ccc(C(C)=O)cc1 | 4 | -1 | -7 | / | -4 | -1 | i | 0
Cc1onc(-c2c(Cl)cccc2Cl)c1C(=O)N1CCN(c2ccccc2)CC1 | -2 | -8 | / | -4 | -8 | -2 | i | 18
(next part)
SMILES | PABP polyA inh | eIF4H inh | Yeast UUG start | HIV Env fusion | MT1-MMP act inh | MT1-MMP act inh RFP | Rce1 inhib | CSC inhib | others
O=C(NCc1cccs1)c1csc([C@@H]2O[C@H](CO)[C@H](O)[C@H](O)[C@H]2O)n1 | / | / | -21 | -8 | 0 | 4 | / | /
COc1ccc(CNC(=O)c2sccc2C)cc1 | -2 | -10 | -19 | -14 | -4 | -5 | i | -17
CCc1ccccc1NC(=O)CSc1nnc(Cn2nnc3ccccc32)n1C | 5 | 2 | -28 | -31 | 3 | -1 | i | -18
Cn1sc(NC(=O)c2ccccc2)nc1=O | -13 | -10 | 6 | 3 | 1 | 8 | i | -6
CCCCNC(=S)Nc1ccccc1F | 6 | 4 | -25 | / | 2 | -2 | i | -6
FC(F)Sc1nc2ccccc2[nH]1 | -5 | 6 | / | 5 | 1 | 3 | i | -2
COc1ccc(C2CCCN2C(=S)Nc2ccccc2C)cc1OC (stereo unspecified) | 1 | -3 | -25 | 14 | 2 | -2 | i | -1
CCCN(C(=O)COC(=O)CCOc1ccccc1C)c1c(N)n(Cc2ccccc2)c(=O)[nH]c1=O | -12 | -12 | -12 | -6 | -5 | -3 | i | -12
CCCn1c(=O)c(/C(N)=N/O)nn(-c2cccc(C(F)(F)F)c2)c1=O | -10 | 0 | -6 | 3 | 7 | 1 | i | 12
CCc1ccc(NC(=S)N(Cc2ccccc2)Cc2ccccn2)cc1 | -18 | -2 | -9 | 2 | 5 | -5 | i | 29
CCn1cc(C(C)NC(=O)COc2ccc(Cl)cc2C)c(C)n1 (stereo unspecified) | -1 | -5 | / | 17 | 7 | 0 | i | -9
N/C(=N\OC(=O)CCC1CCCC1)c1ccc([N+](=O)[O-])cc1 | -4 | -4 | / | -5 | 1 | 1 | i | -16
COc1cccc(CC(NC(C)=O)C(=O)NC2CCN(S(=O)(=O)c3ccc(NC(C)=O)cc3)CC2)c1OC (stereo unspecified) | 6 | -16 | -20 | 8 | 2 | 4 | i | 3
CC(=O)N1CCC2(CC1)CC(=O)c1cc(Cl)ccc1O2 | / | / | -8 | 22 | -4 | -10 | i | -12
Cn1c(OCc2cccnc2)nc2c1c(=O)n(Cc1ccc(Br)cc1)c(=O)n2C | -5 | -10 | -4 | 33 | -2 | -11 | i | -12
CSc1cc(C)n(-c2ccccc2)c(=S)c1C(C)=O | -2 | 6 | -20 | / | 0 | 0 | i | -6
CN(CCC#N)C(=O)COC(=O)c1ccc(CNS(=O)(=O)c2ccc(F)c(Cl)c2)cc1 | -10 | -7 | -2 | -1 | -2 | 0 | i | -3
COCCCNC(=O)c1ccc(S(=O)(=O)c2ccc(Cl)cc2)c(NC(C)=O)c1 | 4 | -1 | 9 | 7 | -1 | -6 | i | /
CCCn1c(C)cc(/C=C(\C#N)C(=O)O)c1C | -9 | 6 | -13 | 7 | 5 | -1 | i | /
CC(=O)Oc1cc2cccc(OC(C)=O)c(=O)c2c(OC(C)=O)c1OC(C)=O | 44 | ? | -8 | / | -4 | -3 | i | -4 | PABP polyA inh retest=44
O=C(Cn1cc2c(n1)CCCC2)NCCCN1CCN(C2CCCCC2)CC1 | -2 | 5 | -15 | -34 | 7 | 6 | i | 0
O=S(=O)(c1ccccc1)N1CCN(c2nc(-c3cccs3)nc3ccccc23)CC1 | 17 | 5 | / | / | / | / | i | 6
Cc1ccc2cccc(OCc3ccccc3)c2n1 | 9 | 2 | -19 | 7 | 1 | -1 | i | -14
CN1C(=O)c2cccc(N(C)C)c2C1=O | 3 | 2 | 5 | / | -2 | 2 | i | -12
Cc1ccc(S(=O)(=O)CCNC(=O)Cc2ccc(Cl)cc2)cc1 | -10 | -8 | / | -74 | -2 | 0 | i | -2

Arranged by length of the SMILES (smallest number first): 11 of the compounds above.
SMILES | PABP polyA inh | eIF4H inh | Yeast UUG start | HIV Env fusion | MT1-MMP act inh | MT1-MMP act inh RFP | Rce1 inhib | CSC inhib | others
CCCCNC(=S)Nc1ccccc1F | 6 | 4 | -25 | / | 2 | -2 | i | -6
Cc1ccc2cccc(OCc3ccccc3)c2n1 | 9 | 2 | -19 | 7 | 1 | -1 | i | -14
COc1ccc(C2CCCN2C(=S)Nc2ccccc2C)cc1OC (stereo unspecified) | 1 | -3 | -25 | 14 | 2 | -2 | i | -1
CC(=O)N1CCC2(CC1)CC(=O)c1cc(Cl)ccc1O2 | / | / | -8 | 22 | -4 | -10 | i | -12
CCc1ccc(NC(=S)N(Cc2ccccc2)Cc2ccccn2)cc1 | -18 | -2 | -9 | 2 | 5 | -5 | i | 29
Cc1ccc(S(=O)(=O)CCNC(=O)Cc2ccc(Cl)cc2)cc1 | -10 | -8 | / | -74 | -2 | 0 | i | -2
CCc1ccccc1NC(=O)CSc1nnc(Cn2nnc3ccccc32)n1C | 5 | 2 | -28 | -31 | 3 | -1 | i | -18
O=C(Cn1cc2c(n1)CCCC2)NCCCN1CCN(C2CCCCC2)CC1 | -2 | 5 | -15 | -34 | 7 | 6 | i | 0
Cn1c(OCc2cccnc2)nc2c1c(=O)n(Cc1ccc(Br)cc1)c(=O)n2C | -5 | -10 | -4 | 33 | -2 | -11 | i | -12
COCCCNC(=O)c1ccc(S(=O)(=O)c2ccc(Cl)cc2)c(NC(C)=O)c1 | 4 | -1 | 9 | 7 | -1 | -6 | i | /
O=C(NCc1cccs1)c1csc([C@@H]2O[C@H](CO)[C@H](O)[C@H](O)[C@H]2O)n1 | / | / | -21 | -8 | 0 | 4 | / | /

(next part)
SMILES | PABP polyA inh | eIF4H inh | Yeast UUG start | HIV Env fusion | MT1-MMP act inh | MT1-MMP act inh RFP | Rce1 inhib | CSC inhib | others
O=C(O)CSc1ncnc2scc(-c3ccc(Br)cc3)c12 | -4 | 35 | -7 | 4 | -6 | 3 | i | 11
COc1cc(S(=O)(=O)Nc2c(C)cc(C)cc2C)ccc1Cl | 2 | 0 | -4 | -35 | 7 | -4 | i | -4
COc1cccc(-c2ccc(NC(=O)C3CCCN(CCCn4nc(C)cc4C)C3)cc2)c1 (stereo unspecified) | -8 | -9 | -27 | 4 | 0 | -4 | i | -7
O=C1CC(c2ccccc2)Oc2cc(O)cc(O)c21 (stereo unspecified) | 6 | -2 | -11 | / | 4 | 2 | i | 3
Cc1ccc(C2CC(=O)c3cnn(-c4nc(C)cc(C)n4)c3C2)cc1 (stereo unspecified) | -10 | 2 | / | 16 | -6 | -3 | i | 2
CCOC(=O)C1CCCN(C(=O)c2ccc(S(=O)(=O)N3CCCC3)cc2)C1 (stereo unspecified) | / | / | 2 | 13 | 2 | 0 | i | -7
CN(C)CCCNc1oc(-c2ccc(Cl)cc2)nc1C#N | 6 | 3 | -21 | / | 2 | 1 | i | 56
CC1(C)Cc2c(sc(NC(=O)c3ccco3)c2C(=O)O)CO1 | -1 | -9 | -7 | / | 3 | 3 | i | 0
CCOc1ccc(C(=O)NC(=S)Nc2ccc(NC(=O)c3ccco3)cc2)cc1[N+](=O)[O-] | 11 | 11 | / | -6 | 5 | 2 | i | 38
O=C(Cn1nc(C(=O)O)c2ccccc2c1=O)Nc1cc(S(=O)(=O)N2CCOCC2)ccc1Cl | / | / | -19 | 2 | 2 | 1 | / | -14
Cc1ccc(-n2ncc3c(NCc4ccco4)ncnc32)cc1C | 17 | 1 | / | -31 | 1 | -3 | i | 35
O=C(NCc1ccco1)/C(=C/c1ccc(Cl)cc1)NC(=O)c1ccco1 | -11 | 9 | -25 | 5 | 2 | 2 | i | -9
O=C(Cc1ccccc1Cl)N/N=C/c1cccnc1 | -6 | -13 | -18 | -12 | -3 | 1 | i | -15
O=C(O)C1CC=CCC1C(=O)NC12CC3CC(CC(C3)C1)C2 (stereo unspecified) | -4 | 14 | -4 | -83 | -1 | -1 | i | -6
COc1ccc(NC(=O)c2ccccc2NC(=O)c2ccco2)c(OC)c1 | -3 | 1 | -2 | / | 0 | 1 | i | 1
Cn1c(=N)n(CC(=O)O)c2ccccc21 | 18 | 1 | 12 | / | 2 | 3 | i | -10

Compound activity deposited in PubChem BioAssay by several laboratories.
